# Sfp inh – qHTS Assay for Inhibitors of Bacillus subtilis Sfp phosphopantetheinyl transferase (PPTase); 4'-phosphopantetheinyl transferase ffp (Bacillus subtilis), Q9F4F7; Biochemical Sfp PPTase activity, qHTS; Potency, µM, for the others: max response, negative = inhibition, actives largely listed as inhibitors; hit rate 3.5% among 310,000; active = well fitted inhibition curve with a large enough effect; inconclusive = small, poorly fitted or top-dose-only effect, or another doubt; inactive = no such curve, though single readings can be large or run the other way;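 note: the enzyme is Sfp with the accession as filed and its product quenches rhodamine fluorescence; potency is the fitted concentration of half-maximal effect; 0% = enzyme reaction without inhibitor and -100% = no enzyme wells; top concentration of the series not given in the record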
#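 Buffer: 50 mM Hepes-Na pH 7.6, 10 mM MgCl2, 0.01% Nonidet P-40, 0.01% BSA. Enzyme 15 nM, pre-exposed to compound 15 min; substrates then added and fluorescence change tracked over 30 min.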
# ClpP mod – qHTS Assay for Activators of ClpP | ATP-dependent Clp protease proteolytic subunit (Bacillus subtilis (strain 168)), P80244 | purified B. subtilis ClpP, FRET peptide cleavage, 20 min | Potency, µM (top dose mostly 57.5 µM), for the others: top-dose activity change, negative = active | hit rate 1.9% among 340,000 | AID 651965, 2013; active = well fitted falling curve with a large enough effect; inconclusive = small, poorly fitted or top-dose-only effect; inactive = no such curve, though single readings can be large or run the other way; note: potency is the fitted concentration of half-maximal effect; the source files actives as falling curves though it sought activators and does not explain the sign; nearly all actives have a fitted effect of over 65% in size; many hits overshoot -100%
# Target sequence (P80244 whole entry, looked up): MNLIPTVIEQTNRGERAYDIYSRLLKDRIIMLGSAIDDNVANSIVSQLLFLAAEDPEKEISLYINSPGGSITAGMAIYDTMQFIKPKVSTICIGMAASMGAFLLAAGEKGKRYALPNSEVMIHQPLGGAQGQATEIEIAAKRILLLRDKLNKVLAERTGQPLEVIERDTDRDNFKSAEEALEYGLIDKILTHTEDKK
#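 Purified B. subtilis ClpP, 10 microg/mL final in Tris/HCl pH8 with KCl, BSA, glycerol and Tween-20, cleaved an Abz/nitrotyrosine-quenched decapeptide. Fluorescence (ex 320, em 430) was read at 0 and 20 min at room temperature. Delta was normalized to 5.8 microM ADEP and DMSO/no-enzyme controls.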
# gsp ag – qHTS for Agonist of gsp, the Etiologic Mutation Responsible for Fibrous Dysplasia/McCune-Albright Syndrome: qHTS. gsp mutant cells, cAMP HTRF, 30 min; control for the full effect not named in the record. Potency, µM (doses to about 76.9 µM), inactives show top-dose activation (cAMP increase), most hits filed as activators. hit rate 0.13% among 340,000. AID 624287, 2012; active = well fitted activation curve with a large enough effect; inconclusive = small, poorly fitted or top-dose-only effect, or another doubt; inactive = no such curve, though single readings can be large or run the other way; cell line not stated here;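 note: phosphodiesterase inhibitor Ro 20-1724 added with compounds to block cAMP breakdown; potency is the fitted concentration of half-maximal effect; nearly all actives have a fitted effect of over 60% in size; about a fifth of the inactives were tested at one dose only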
#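 Cells in DMEM/10% FBS with G418 were pretreated with compounds in DMSO plus […] (300 uM stock) for 30 min at 37C. cAMP was measured by HTRF (cAMP-d2 plus anti-cAMP antibody-K) after 30 min at room temperature.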
# D2 PAM – Beta-Arrestin HTS for Positive Allosteric Modulators of the Human D2 Dopamine Receptor: Potentiators; potentiation, % (no concentration beside the values); hit rate 0.23% among 360,000; DiscoveRx D2 beta-arrestin cells, luminescence, 90 min; 100% = 57 uM dopamine signal; active = potentiation of 50% or more; inconclusive = 30% to 50%; inactive = 30% or less;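 note: compound concentration not given in the record; tested on top of an EC20 dose of dopamine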
#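 PathHunter beta-arrestin assay in DiscoveRx D2 cells. Compounds were added with an EC20 of dopamine (50 nM final) for 90 min at 37 deg C. Luminescence was read 1 h after detection reagent, with 57 uM dopamine as the EC100 control.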
# gsp antag – qHTS for Antagonists of gsp, the Etiologic Mutation Responsible for Fibrous Dysplasia/McCune-Albright Syndrome: qHTS. Potency, µM (top dose mostly 76.9 µM), for inactives: at the top dose activity change, negative = inhibition, usual class: inhibitors. hit rate 0.4% among 340,000. gsp-mutant cells, cAMP HTRF, 30 min; control for the full effect not named in the record; active = falling curve of any shape with a large fitted effect; inconclusive = falling curve, mostly with a smaller effect; inactive = flat or rising curve; cell line not stated here;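 note: intracellular cAMP measured with PDE inhibitor Ro 20-1724 present during compound exposure; potency is the fitted concentration of half-maximal effect; % is set by controls: 0 for no effect and ±100 for the full control effect; nearly all actives have a fitted effect of over 65% in size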
#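 G418-selected cells were plated in DMEM/10% FBS for 16-24 h at 37C, then treated with compounds plus the PDE inhibitor […] (300 uM solution added) for 30 min at 37C. Intracellular cAMP was measured by HTRF after 30 min lysis at room temperature.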
# TRPV1 PAM – HTS Assay for Compounds that Act as Potentiators of the Vanilloid Receptor 1. Transient receptor potential cation channel subfamily V member 1 (Homo sapiens), Q8NER1. TRPV1-expressing cells, Fluo-8 calcium influx, capsaicin EC20 potentiation; host cell line not named in the record; control for the full effect not named in the record. potentiation, % at 8.33 µM. hit rate 0.02% among 320,000. AID 540277, 2011; active means potentiation above 80%; inconclusive means 30% to 80%; inactive means below 30%; note: 0% is about no effect
# Target sequence (Q8NER1 whole entry, looked up): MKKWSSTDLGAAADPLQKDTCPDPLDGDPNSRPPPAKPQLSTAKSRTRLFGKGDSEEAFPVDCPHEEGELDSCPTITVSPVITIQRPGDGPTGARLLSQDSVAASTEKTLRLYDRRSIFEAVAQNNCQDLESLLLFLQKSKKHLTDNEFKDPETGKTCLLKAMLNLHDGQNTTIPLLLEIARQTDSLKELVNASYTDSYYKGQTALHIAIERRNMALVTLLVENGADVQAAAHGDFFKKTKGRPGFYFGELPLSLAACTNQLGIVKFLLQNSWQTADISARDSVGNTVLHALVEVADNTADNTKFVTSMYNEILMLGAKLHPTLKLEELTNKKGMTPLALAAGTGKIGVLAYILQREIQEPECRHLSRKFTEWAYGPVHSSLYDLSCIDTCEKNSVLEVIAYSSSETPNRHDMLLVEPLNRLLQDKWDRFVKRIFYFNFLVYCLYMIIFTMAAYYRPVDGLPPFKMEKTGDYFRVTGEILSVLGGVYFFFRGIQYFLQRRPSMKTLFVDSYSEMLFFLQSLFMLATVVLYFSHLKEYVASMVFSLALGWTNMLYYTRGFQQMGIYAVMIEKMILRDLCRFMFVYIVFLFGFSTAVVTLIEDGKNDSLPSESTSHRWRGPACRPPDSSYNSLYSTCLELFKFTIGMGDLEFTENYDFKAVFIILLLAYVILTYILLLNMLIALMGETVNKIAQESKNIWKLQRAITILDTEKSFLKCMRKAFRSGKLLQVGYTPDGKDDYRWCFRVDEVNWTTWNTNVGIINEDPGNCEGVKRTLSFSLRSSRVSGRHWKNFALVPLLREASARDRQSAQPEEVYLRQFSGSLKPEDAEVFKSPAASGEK
#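 TRPV1-expressing cells were cultured overnight at 35.5C and loaded with Fluo-8 calcium dye for 40 to 90 min at room temperature. After a 10 s baseline, compound was added and calcium influx was read kinetically for 3 min (ex 480/em 520 nm).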
# Menin-MLL FL inh – qHTS Assay for Inhibitors Targeting the Menin-MLL Interaction in MLL Related Leukemias: Competition With Fluorescein Labeled MLL-derived Peptide | FP activity change, % at 61.4 µM | Fluorescence polarization, fluorescein-MLL peptide displacement from menin | 290,000 tested, under 10 active | AID 1766, 2009; inconclusive = falling polarisation curve, or a change in total fluorescence; inactive = total fluorescence flat and polarisation flat or rising; no compound was filed as active; the % refers to the polarisation; negative = inhibition;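 note: % of control where 0% means no effect; inhibitors lower the polarisation; unlabelled MLL peptide was the positive control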
# Numbers without * were called inactive; ? = inconclusive; / = no result given; & = joins results of further samples; [ ] = dose if it differs, or a comment.
SMILES,Sfp inh,ClpP mod,gsp ag,D2 PAM,gsp antag,TRPV1 PAM,Menin-MLL FL inh
COCC(C)n1c(SCC(=O)N2CC(=O)Nc3ccccc32)nc2ccccc2c1=O (stereo unspecified),/,-0.6%,-19%,-15,2%,-17,/
Cn1c(SCC(=O)NC2CC2)nnc1-c1cccs1,0%,-3.7%,-6%,-2,12%,3,/
O=C(Nc1ccc(F)cc1)c1ccccc1F,2%,-1.1%,-3%,-8,0%,-18,1.0
COC(=O)CC(NC(=O)c1ccco1)c1cccc2ccccc12 (stereo unspecified),1%,0.1%,-18%,-10,6%,12,1.4
CC(=O)Nc1ccc(C)cc1NC(C)=O,17%,0.3%,-1%,6,20%,-18,0.5
CC1=NN(c2ccccc2)C(=O)/C1=C/N(C)C,-3%,-1.0%,2%,-8,-1%,5,-4.8
COc1ccc(Oc2ncccc2[N+](=O)[O-])cc1,18%,/,?,0,5%,-3,-2.9
Cc1c([N+](=O)[O-])c([N+](=O)[O-])nn1CC(=O)N1CCOCC1,24%,/,10%,2,-2%,17,-0.9
O=C(Nc1ccon1)c1ccc2c(c1)OCO2,0%,-25%,8%,-3,3%,1,1.6
O=C(NCCN1CCOCC1)c1ccc2c(c1)N(Cc1ccccc1F)C(=O)c1ccccc1S2(=O)=O,12%,3.0%,13%,5,-5%,8,-0.3
COC(=O)c1ccccc1NC(=O)c1ccco1,-10%,-2.2%,16%,-15,-7%,-16,0.5
CCC(C)NC(=O)c1ccc(NC(=O)C2=C(C)OCCS2)cc1 (stereo unspecified),12%,-26%,-9%[15.4 µM],-5,8%,-7,-8.0
CCc1nnc(NC(=O)CSc2nc(C)c3c(c2C#N)CCCC3)s1,-6%,34%,?,0,-12%,13,3.8
O=C1C(O)CCN1C1CCCCC1 (stereo unspecified),/,-0.6%,7%[15.4 µM],-25,10%,/,/
Cn1cnc2c(NCc3ccco3)ncnc21,10%,1.2%&0.6%,/,-39,9%,-5,3.5
COc1ccc(CCNC(=O)c2cc3c(=O)n(C)c4ccccc4c3n2C)cc1OC,?,/,-1%[15.4 µM],-4,6%,24,2.8
Cc1ccccc1S(=O)(=O)c1c(C)cc(C)n(C)c1=O,6%,/,-2%[15.4 µM],-14,/,-16,-0.5
COc1cc2c(cc1OC)C(C)N(CCN1C(=O)c3ccccc3C1=O)CC2 (stereo unspecified),0%,-1.3%,-43%[inhibitor],3,2%,1,0.3
COc1ccccc1N1CCN(/N=C\c2ccccc2)CC1,6%,0.4%,-55%[inhibitor],-12,-10%,17,1.2
CCCc1nnc(SCC(=O)Nc2cccc(C(F)(F)F)c2)o1,11%,/,-9%[15.4 µM],-12,5%,1,-0.9

# Reformatted: results already given.
Compound | Sfp inh | ClpP mod | gsp ag | D2 PAM | gsp antag | TRPV1 PAM | Menin-MLL FL inh
CCCc1nnc(SCC(=O)Nc2cccc(C(F)(F)F)c2)o1 | 11% | / | -9%[15.4 µM] | -12 | 5% | 1 | -0.9
O=C1C(O)CCN1C1CCCCC1 (stereo unspecified) | / | -0.6% | 7%[15.4 µM] | -25 | 10% | / | /
COC(=O)c1ccccc1NC(=O)c1ccco1 | -10% | -2.2% | 16% | -15 | -7% | -16 | 0.5

# Later entries
SMILES,Sfp inh,ClpP mod,gsp ag,D2 PAM,gsp antag,TRPV1 PAM,Menin-MLL FL inh
COc1ccc(NC(=O)CN(C)C(=O)C(C)N2C(=O)c3ccccc3C2=O)cc1 (stereo unspecified),/,-2.5%,-16%,-14,5%,3,/
C=CCn1c(Cc2cccs2)nnc1SCC(=O)Nc1cccc(OC)c1,21%,-4.3%,14%,-13,-8%,?,0.6
COc1ccc(CCn2c(=O)c3cccnc3n(Cc3cccc([N+](=O)[O-])c3)c2=O)cc1OC,?,/,13%[15.4 µM],-7,2%,13,2.8
CC1CCN(CCCCOc2ccccc2-c2ccccc2)CC1,?,-5.2%,9%[15.4 µM],-12,7%,-6,-0.9
CS(=O)(=O)N1CCN(C(=O)NC2CCCCC2)CC1,8%,/,-11%[15.4 µM],-14,6%,-8,-4.1
Cc1[nH]cnc1CN1CCc2c(c3ccccc3n2C)C1=O,1%,-3.6%,/,-9,1%,/,2.0
CCN1CCN(C(=O)N(c2ccccc2)c2ccccc2)CC1,23%,/,12%,0,15%,1,0.1
CCOCCCNc1nc2c(c(=O)[nH]c(=O)n2C)n1CCCc1ccccc1,-3%,0.8%,1%,11,16%,7,1.1
CC(c1nnc(SCC(=O)NC(=O)NCc2ccco2)n1-c1ccc(Cl)cc1)N(C)C (stereo unspecified),2%,-0.3%,-14%,-7,-3%,-6,-0.9
CCc1ccc(-c2nc(CS(=O)CC(=O)NCCCN3CCC(C)CC3)c(C)o2)cc1 (stereo unspecified),17%,-14%,10%,-24,15%,0,-0.4
C=CCOc1ccccc1CN(CCc1ccccc1)C(=O)c1cccc(S(C)(=O)=O)c1,-1%,/,-2%,-6,?,-19,-0.9
O=C(CN(c1cc(C(F)(F)F)ccc1Cl)S(=O)(=O)c1ccccc1)NCc1cccnc1,9%,0.1%,-24%,-1,-8%,-1,/
N#CC1=C(N)Oc2nc[nH]c(=O)c2C1c1cccs1 (stereo unspecified),14%,/,15%[15.4 µM],-8,-7%,6,-0.3
CC1=C(C(=O)OCc2ccccc2)C(/C=C/c2ccccc2)N2C(=O)CCSC2=N1 (stereo unspecified),4%,-1.5%,21%,-18,13%,3,0.5
O=C1C(=O)N(Cc2cccnc2)C(c2ccccn2)/C1=C(/O)c1ccc(Br)cc1 (stereo unspecified),31%[activator],-0.6%,?,2,14%,4,1.6
O=C(CCl)NC1CCCc2ccccc21 (stereo unspecified),5%,/,0%[15.4 µM],3,2%,18,-0.6
CCC(=O)Nc1cccc(C2=NOC3(C2)C[C@H](C(N)=O)N(C(=O)CC#N)C3)c1 (stereo partly specified),3%,-7.6%,/,-7,2%,-15,-4.4
O=S(=O)(c1ccccc1)N1CCN=C1SCc1cccnc1,-6%,-0.1%,-14%,0,8%,19,0.7
Cc1ccc(S(=O)(=O)N2CCCCC2)cc1NC(=O)c1ccccc1Cl,/,-1.4%,5%,-10,-1%,/,/
Cc1ccc(NC(=O)c2n[nH]c(=O)c3ccccc23)cc1S(=O)(=O)N1CCOCC1,/,1.1%,-2%[15.4 µM],-12,20%,/,/
NS(=O)(=O)c1ccc(NC(=O)c2ccc(-c3ccccc3)cc2)cc1,-10%,/,?,7,-5%,12,/
O=S(=O)(c1ccccc1)N1CCN(S(=O)(=O)c2ccc(F)cc2)CC1,5%,-0.2%,3%,6,11%,14,0.3
Cc1ccc2oc(=O)c(/C=C(\O)c3sc(C)nc3C)nc2c1,-21%,1.1%,3%[15.4 µM],5,-11%,-12,9.1
CN1C(=O)N(C)c2ccc(C=O)c3cccc1c23,0%,/,?,7,?,12,?
COc1ccc(NC(=O)CN(C)C(=O)c2cnc(Cl)c(Cl)c2)cc1,7%,/,25%,-3,2%,-6,/
COc1cc(OC)c(C(=O)NCC(c2cccs2)N(C)C)cc1OC (stereo unspecified),24%,/,/,/,/,5,-1.5
O=C(COc1ccccc1)NS(=O)(=O)c1ccc(Cl)cc1,16%,-1.4%,12%,-7,-3%,7,/
O=C(O)c1ccc(NC2=C/C(=N/S(=O)(=O)c3ccccc3)c3ccccc3C2=O)cc1,-11%,/,?,-12,-21%,2,-5.3
CCCCOc1cccc(C(=O)NC(=S)Nc2cccc(C(F)(F)F)c2)c1,-27%,0.7%,-11%,-30,-9%,3,3.4
Cc1ccccc1C(=O)N1CCC(C(=O)Nc2sccc2C(N)=O)CC1,/,-0.1%,16%,0,-5%,-2,/
CCc1ccc2[nH]c(=O)c(CN(Cc3ccc(F)cc3)C(c3nnnn3CCN3CCOCC3)C(C)C)cc2c1 (stereo unspecified),9%,-10%,?,-19,2%,-1,-1.7
CCOC(=O)c1c(NC(NC(C)=O)C(Cl)(Cl)Cl)sc2c1CCCC2 (stereo unspecified),?,2.3%,-20%,-19,0%,-4,-1.2
CC(C)CNC(=O)CSc1n[nH]c(=O)n1CCc1ccccc1,2%,0.7%,-5%,-7,3%,5,0.0
Cc1c(Cl)cccc1NC(=S)NCc1ccc2c(c1)OCO2,1%,-3.7%,3%,-16,6%,-3,3.1
COC(=O)c1c(NC(=O)c2ccccc2F)sc2c1C(C(=O)OC)CC2 (stereo unspecified),-10%,-9.9%,-20%,?,-15%,-4,2.7
Cc1ccc(C(=O)N/N=C\c2ccc(-c3ccc([N+](=O)[O-])cc3)o2)cn1,-16%,/,8%,0,-6%,/,-1.5
COc1cc(NS(=O)(=O)c2ccc(C)cc2)ccc1-n1cnnn1,15%,-1.0%,-49%[inhibitor],2,-24%,27,0.8
COc1ccc(Cc2nnc(SCC(=O)Nc3ccc(C)cc3)n(N)c2=O)cc1,/,-2.1%,34%,-20,-7%,-4,/
Cc1c(NC(=O)C(C)OC(=O)c2ccccc2O)c(=O)n(-c2ccccc2)n1C (stereo unspecified),/,4.1%,-4%,-45,1%,/,/
Cc1nn(Cc2nc(-c3cccs3)no2)c(C)c1Br,5%,-1.5%,-62%[inhibitor],0,2%,/,7.6
Cc1cccc(NC(=O)CSc2n[nH]c(-c3ccncc3)n2)c1,11%,-0.1%,-12%,3,-35%,1,4.5
CCOC(=O)c1ccc(NC(=O)C(=O)NCc2ccccn2)cc1,11%,/,-19%[15.4 µM],-2,1%,2,2.0

# High-throughput results from PubChem BioAssay.

# This is a random part of the collection; about 5.1% have a hit in one of these screens.
